NPYLR7 ag: activates Aedes aegypti NPYLR7 receptor. HEK293T NPYLR7/Galpha15, GCaMP6s calcium fluorescence. activation, % at 10 µM. 270,000 tested, 0.15% active; in the data active = activation above about 40%;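 also: 0% = vehicle and 100% = reference agonist at the receptor; some compounds past the cut are filed as inactive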
NPYLR7 ag max-min: also measured in NPYLR7 ag; calls as there; activation, %; measured here: Max-Min RFU normalised activation; some inactives read as strong as hits;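 span of the calcium signal over five minutes; 0% = vehicle and 100% = native peptide agonist; compound fluorescence can raise it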
The depositor's hits bear a star. These rows are one share of the data. The share of hits here may be higher or lower than overall.

SMILES	NPYLR7 ag	NPYLR7 ag max-min
Cc1cc2c(SCC(=O)c3ccc(F)cc3)ncnc2s1	-4.3	-6.3
COc1ccc(CNC(=O)NC2CCCC(OCC(F)(F)F)C2)cc1 (stereo not drawn)	-0.2	-2.5
CCN(CC)CCCC(C)NC(=O)c1c(C)noc1-c1cc(OC)c(OC)c(OC)c1 (stereo not drawn)	27.0	12.8
Cc1nc(SCC(=O)NCC2CCCO2)c2c(C)c(C)sc2n1 (stereo not drawn)	0.5	7.4
CC1(C)C(C#N)=C(SCc2cc3c(cc2Br)OCO3)NC(=O)C1C#N (stereo not drawn)	7.5	0.7
CNc1ccc(N)c2c1C(=O)c1ccccc1C2=O	-5.7	-8.1
Cc1nc(CN2C(=O)C(C)ON=C2c2ccccc2-c2ccco2)cs1 (stereo not drawn)	12.5	5.7
O=C(COC(=O)c1ccc(Cl)c(S(=O)(=O)N2CCCCC2)c1)NCc1ccccc1Cl	-1.2	-1.5
COc1ccc(OC)c(Cc2nnc(CCC(=O)N3CCSCC3)o2)c1	9.9	3.4
COc1ccc(CCNC(=O)c2cccnc2)c(Cl)c1	-7.0	-7.5
N#Cc1c(N2C(=N)C(C#N)C(c3cccs3)C3=C2CCCC3=O)sc2c1CCCC2 (stereo not drawn)	13.8	9.0
COCCCN(Cc1csc(COc2ccc(Cl)cc2)n1)C(=O)c1ccccc1F	-7.3	-3.7
CN(CCc1ccccn1)C(=O)CCCCC1CCSS1 (stereo not drawn)	-8.6	-11.2
c1ccc2c(OCc3nc(CNC4CC4)cs3)cccc2c1	32.3	34.8
CNC(=O)N(O)C1N(N)C(=S)SC1(C)C (stereo not drawn)	-3.5	-8.9
c1cnc(N2CCOCC2)c(CNC2C3CC4CC(C3)CC2C4)c1 (stereo not drawn)	5.8	2.7
O=C(c1ccc([N+](=O)[O-])cc1)N1CCCC(OCc2ccccc2)C1 (stereo not drawn)	-5.3	0.4
Cc1cccc(OCc2nnc(SCC(=O)NCCc3ccccc3)o2)c1	-2.3	-5.3
COc1ccc(C2=Nc3ncnn3C(c3cc(OC)ccc3OC)C2)cc1 (stereo not drawn)	5.7	4.4
Cc1ncsc1CN(C)C(=O)C(C)(C)c1cccc(Cl)c1	2.2	0.4
CC(=O)N[C@H]1C[C@@H](c2cccc(Cn3cccn3)c2)O[C@@H](C(C)C)C1	-10.1	-16.9
O=C(c1ccc(Br)cc1)N1CCC(c2ccccc2)CC1	-0.5	-2.1
Cc1ccc(CNC(=O)C(C)(C)n2cc(-c3ccccc3C)cn2)cc1	-1.2	-2.3
COC(=O)c1c(C)[nH]c(C(=O)COC(=O)c2cc(F)cc(F)c2)c1C	18.2	5.0
COc1ccccc1C1(CC(=O)N2CCC(C(O)c3cccs3)CC2)CC(=O)N(C)C1=O (stereo not drawn)	2.5	-1.6
O=C1OC(c2ccc(Cl)c(Cl)c2)=N/C1=C\C(Cl)=C\c1ccccc1	-1.7	-3.4
CN(Cc1nc2ccccc2[nH]1)S(=O)(=O)c1cccc(F)c1	7.5	4.7
CC(NC(=O)C(C)(C)NC(=O)OC(C)(C)C)C(=O)N1CCOCC1 (stereo not drawn)	4.1	1.3
CCCCN(CC(=O)N(CCc1c[nH]c2ccccc12)Cc1ccccc1)C(=O)N(C)C	12.0	19.1
O=C(C1CCN(S(=O)(=O)c2cc(Cl)ccc2Cl)CC1)N1CCCc2ccccc21	0.7	2.2
Cc1cccc(C2CCCN2S(=O)(=O)CCCC#N)c1C (stereo not drawn)	2.2	0.2
CCOC(=O)C1CCCN(C(=O)c2cc(-c3ccc([N+](=O)[O-])cc3)nn2-c2ccccc2Cl)C1 (stereo not drawn)	-5.2	0.1
CNC(=O)NC(=O)Cn1nnc(-c2ccc(Cl)cc2)n1	6.9	3.6
CN(C)c1cc(N2CCCC(CO)(CCOc3ccccc3)C2)ncn1 (stereo not drawn)	-2.9	-4.0
N#Cc1ncn(CC(=O)NCC(=O)Nc2ccccc2Br)n1	4.6	1.0
O=C(c1ccc(-n2cccn2)cc1)N1CCN(S(=O)(=O)c2cccc3nsnc23)CC1	-3.2	-2.5
O=C(COC(=O)c1ccccc1N1C(=O)C2C3C=CC(C3)C2C1=O)c1ccc(Br)cc1 (stereo not drawn)	-0.1	-4.2
CC(C)(O)C#Cc1cccc(C(=O)NCCC2COc3ccccc3O2)c1 (stereo not drawn)	4.6	-4.9
O=C(NCc1cccnc1)c1cc(-c2ccccc2F)nc2cc(-c3ccccc3)nn12	-13.0	-0.5
CCc1ccc(S(=O)(=O)Nc2cc(-c3cn4nc(OC)ccc4n3)ccc2OC)s1	-5.8	-10.4
O=C(NC1CC(=O)N(CCc2ccccc2)C1)c1ccccc1-n1cccn1 (stereo not drawn)	10.3	3.0
NC(=O)c1ccc(NC(=O)CSc2nc(=O)n3ccccc3n2)cc1	-1.2	-2.1
CCCn1c(O)c(N=Nc2ccccc2[N+](=O)[O-])c2ccccc21	-0.3	-3.9
COC(=O)[C@@H]1C[C@@H](N(C)C)CN1Cc1c(Cl)ccc(OC)c1F	5.9	2.4
Cc1nc2nc(N3C(=O)C4CC=CCC4C3=O)[nH]n2c(=O)c1Cc1ccccc1 (stereo not drawn)	-3.5	-6.8
Cc1cccnc1N=Cc1nc(-c2ccccc2Br)oc1O	-4.2	-7.0
CCOC(=O)C(c1ccc(OC)c(OC)c1)C1C=CC(NC(=O)c2cc(Cl)cc(Cl)c2)C1 (stereo not drawn)	2.0	-3.3
COC(=O)c1ccc(CNC(=O)C2=CC(C)(C)COc3ccc(OC)cc32)cc1	2.4	7.2
CC1CCN(S(=O)(=O)N2CCC(NS(C)(=O)=O)CC2)CC1	3.8	0.7
CC(=O)Nc1ccc(C(=O)n2ccnc2)s1	1.1	-0.2
CCOC(=O)c1c(N)sc(C(=O)N2CCCC2)c1C	-4.4	-4.2
Cc1cc(=O)c(C(=O)N(C)C(C)C2CC2)nn1-c1ccccc1C(F)(F)F (stereo not drawn)	8.1	5.2
CCCCCCCCCC(=O)N(CC(=O)Nc1cc(C(C)(C)C)nn1-c1ccccc1C)Cc1ccco1	11.7	6.3
O=C(O)Cc1ccc(F)c(-c2ccnc3[nH]ccc23)c1	9.0	5.1
COc1cccc2c1OCC(C(=O)NCCSc1nnnn1C)C2 (stereo not drawn)	6.2	4.7
O=S(=O)(c1cc(C(F)(F)F)ccc1Cl)N1CCNCC1	0.6	5.5
Cc1nnc(SCC(=O)NC(C)COc2c(C)cccc2C)s1 (stereo not drawn)	-2.6	-7.8
CCOC(=O)c1nn(-c2ccccc2)c(=O)c2c(NC(=O)c3ccc(Br)cc3)scc12	-1.9	-3.2
CC(C)Oc1ccc(C(O)=C2C(=O)C(=O)N(CCCn3ccnc3)C2c2ccccc2F)cc1 (stereo not drawn)	11.5	11.5
Cn1cc(CN2CCc3c([nH]c4ccccc34)C2c2cccc(Cl)c2)cn1 (stereo not drawn)	-14.1	-18.1
Next section.
SMILES	NPYLR7 ag	NPYLR7 ag max-min
O=C(CC(NCCCO)C(=O)O)Nc1ccc(N=Nc2ccccc2)cc1 (stereo not drawn)	-6.2	-6.8
Cc1ccc(-c2csc(N3CCCC3=O)n2)s1	3.5	12.5
CCC(CC)NC(=O)c1ccc(Br)c(S(=O)(=O)N(C)C)c1	13.3	4.2
COc1cccc(NC(=O)CSc2nncc(=O)[nH]2)c1	2.1	1.0
O=C(c1ccc(N2CCCC2c2ccncc2)nc1)N1CCCC2CCCCC21 (stereo not drawn)	8.4	10.9
COC(=O)[C@@H]1C[C@@H](N(C)C)CN1S(=O)(=O)c1ccc(NC(C)=O)cc1	28.0	11.5
CCn1c(SCC(=O)N2CCc3ccccc3C2)nc2sc(C)c(C)c2c1=O	-4.9	-4.6
CC(=O)N1C=Cc2ccccc2C1CC(=O)Nc1ccccc1I (stereo not drawn)	0.0	-0.6
Cc1ccc(C2=Nc3ncnn3C(c3ccc(F)cc3)C2)cc1C (stereo not drawn)	3.7	2.8
CC(C)(C)C1CCC2(CC1)NC(=O)N(CN1CCN(C(=O)c3cccs3)CC1)C2=O (stereo not drawn)	18.3	21.0
CC(C)CC(=O)N(Cc1ccc(OS(=O)(=O)c2ccc(F)cc2)cc1)Cc1ccco1	-4.4	6.6
CC(c1ccc(S(N)(=O)=O)cc1)N(C)Cc1csc(C(C)(C)C)n1 (stereo not drawn)	9.5	10.3
CCOc1ccc2cc(C(N)=O)c(=Nc3ccc(C)cc3)oc2c1	-9.1	-14.8
Cc1ccc(C2=NN(C(=O)CN3CCC4(CC3)OCCO4)C(c3cccn3C)C2)cc1C (stereo not drawn)	-2.2	5.0
CCOC(=O)[C@@H]1C[C@H]2CN(C)C(=O)c3cccc(c32)N1C(=O)c1cc(C)oc1C	1.7	9.9

Next section, overlapping the part above by 7 compounds.
SMILES	NPYLR7 ag	NPYLR7 ag max-min
Cc1ccc(C2=Nc3ncnn3C(c3ccc(F)cc3)C2)cc1C (stereo not drawn)	3.7	2.8
CC(C)(C)C1CCC2(CC1)NC(=O)N(CN1CCN(C(=O)c3cccs3)CC1)C2=O (stereo not drawn)	18.3	21.0
CC(C)CC(=O)N(Cc1ccc(OS(=O)(=O)c2ccc(F)cc2)cc1)Cc1ccco1	-4.4	6.6
CC(c1ccc(S(N)(=O)=O)cc1)N(C)Cc1csc(C(C)(C)C)n1 (stereo not drawn)	9.5	10.3
CCOc1ccc2cc(C(N)=O)c(=Nc3ccc(C)cc3)oc2c1	-9.1	-14.8
Cc1ccc(C2=NN(C(=O)CN3CCC4(CC3)OCCO4)C(c3cccn3C)C2)cc1C (stereo not drawn)	-2.2	5.0
CCOC(=O)[C@@H]1C[C@H]2CN(C)C(=O)c3cccc(c32)N1C(=O)c1cc(C)oc1C	1.7	9.9
O[C@@H]1C[C@@H]2C[C@H](c3ccccc3)OC[C@@]2(O)[C@H]1N1CCc2ccccc2C1	3.0	11.3
COCCN1CCCC(O)(CN2CCC(Oc3ncccn3)CC2)C1=O (stereo not drawn)	13.1	9.5
O=C(CCc1n[nH]c2c1CCCC2)N1CCCC(OCc2ccccn2)C1 (stereo not drawn)	11.3	0.0
CCSc1nc2ncc3c(=O)n(-c4cccc(F)c4)ccc3n2n1	6.1	5.7
CCN(C(=O)C(C)OCC(C)C)C1CCN(C(C)c2ccccc2)C1 (stereo not drawn)	2.9	-14.5
CC(C)CC(=O)N(CCN(C)C)Cc1nccn1Cc1ccccc1	18.2	14.9
Cc1cc(C(F)F)n2nc(C(=O)Nc3c(C)nn(Cc4ccccc4C)c3C)nc2n1	10.0	1.5
COc1ccc(F)cc1CN1CCN(C(=O)c2cc(Cl)c[nH]2)CC1	1.0	-1.6
O=S(=O)(/C=C/c1ccccc1)N1CCSc2ccc(Cl)cc21	0.5	1.7
CCCc1cc(C(=O)N2CCC3(CC2)CNC(=O)C3)cs1	27.5	12.8
N#CC(C#N)C(C#N)(C#N)CC(=O)C1CC2C=CC1C2 (stereo not drawn)	13.2	8.6
Cc1ccc(S(=O)(=O)NC(C(=O)OC2CCOC2=O)C(C)C)cc1 (stereo not drawn)	6.3	2.1
COc1ccc(NS(=O)(=O)c2cccc3nsnc23)cc1	2.7	2.3
CC(C)C(=O)N1CCC1(C)C(=O)Nc1ccc2[nH]ccc2c1 (stereo not drawn)	5.3	3.0
COc1cccc(CN(Cc2nc(C(=O)NCc3ccccc3)co2)C2CC2)c1	1.9	8.4

Three entries picked at random from the list so far:
SMILES	NPYLR7 ag	NPYLR7 ag max-min
CCCc1cc(C(=O)N2CCC3(CC2)CNC(=O)C3)cs1	27.5	12.8
O=C(CCc1n[nH]c2c1CCCC2)N1CCCC(OCc2ccccn2)C1 (stereo not drawn)	11.3	0.0
Cc1cc(C(F)F)n2nc(C(=O)Nc3c(C)nn(Cc4ccccc4C)c3C)nc2n1	10.0	1.5

More structures.
SMILES	NPYLR7 ag	NPYLR7 ag max-min
CCCCc1oc2ccc(NS(C)(=O)=O)cc2c1C(=O)c1ccc(OCCCN(CCCC)CCCC)cc1	-11.9	-15.8
CCc1cccc2sc(N(Cc3ccncc3)C(=O)c3ccc([N+](=O)[O-])s3)nc12	-2.3	-8.7
CC(C)CN(CCC(=O)N1CCN(c2ccccc2F)CC1)c1nc(-c2ccccc2)nc2ccccc12	4.6	16.4
Cc1cc(=O)n(CC(=O)N2C[C@H]3C[C@H](O)[C@H](O)C[C@H]3C2)c2ccccc12	7.2	5.0
CCOC(=O)C1=C(C)N=c2s/c(=C\c3ccc(OC(C)=O)c(OCC)c3)c(=O)n2C1/C=C/c1ccccc1 (stereo not drawn)	15.3	17.8
Cc1cc(C)cc(NC(=O)C2CC(=O)n3c(nc4ccccc43)N2)c1 (stereo not drawn)	-1.0	-2.2
Cc1ccc(CCNC(=O)c2cccnc2Oc2cccc([N+](=O)[O-])c2)cc1	-7.7	-13.2
COc1cc(-c2cc(C(F)(F)F)n3ncc(C(=O)N4CCCc5ccccc54)c3n2)cc(OC)c1OC	8.1	6.3
O[C@@H]1CN(Cc2cncn2Cc2ccccc2)CC[C@H]1c1ccc(F)cc1	-1.3	-2.3
CCOC(=O)c1c(C)nn(S(=O)(=O)c2ccc(Br)cc2)c1SC	2.0	4.6
CC1CCCCN1C1CN(c2nc(CCN)nc3ccccc23)C1 (stereo not drawn)	3.7	0.2
CC(C)c1cc(CN2CCCC(c3nc(-c4cccnc4)no3)C2)on1 (stereo not drawn)	16.4	6.0
CCOCCCN(Cc1nc(C(=O)OCC)cs1)C(=O)c1cc(C(F)(F)F)cc(C(F)(F)F)c1	7.6	-0.2
Clc1ccc(-c2nc(CSc3ccccn3)cs2)cc1	4.1	1.3
C=CCN(Cc1ncccc1C(=O)O)C1CCCC1	-0.9	4.6

High-throughput results deposited in PubChem BioAssay by Fisher Drug Discovery Resource Center.
